VDR inhibitor: blocks the human vitamin D receptor | P11473 | VDR-SRC2-3 peptide fluorescence polarization, 2 h | Potency, µM, for inactives: max response, negative = inhibition, hits mostly inhibitors | 400,000 tested, 0.93% active; active means well fitted inhibition curve with a large enough effect; inconclusive means small, poorly fitted or top-dose-only effect, or another doubt; inactive means no such curve, though single readings can be large or run the other way; further: series mostly up to about 120 µM
Target sequence (P11473 whole entry, looked up): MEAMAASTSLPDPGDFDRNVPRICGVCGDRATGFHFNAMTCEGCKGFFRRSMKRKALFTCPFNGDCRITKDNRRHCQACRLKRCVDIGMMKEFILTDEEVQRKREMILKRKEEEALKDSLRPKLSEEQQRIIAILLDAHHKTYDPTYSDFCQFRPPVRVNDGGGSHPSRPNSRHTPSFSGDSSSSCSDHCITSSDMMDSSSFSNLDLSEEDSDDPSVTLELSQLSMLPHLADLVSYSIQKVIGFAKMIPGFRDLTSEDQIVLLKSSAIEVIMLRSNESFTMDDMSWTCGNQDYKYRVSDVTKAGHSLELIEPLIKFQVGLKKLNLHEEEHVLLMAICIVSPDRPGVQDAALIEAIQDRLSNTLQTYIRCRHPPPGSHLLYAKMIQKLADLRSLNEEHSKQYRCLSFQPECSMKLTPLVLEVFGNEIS
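Compounds are added to VDR with labelled SRC2-3 coactivator peptide and held 2 h at room temperature. Inhibition of the VDR–peptide interaction is then read as a change in fluorescence polarization.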
* marks the source's active call; other numbers are inactive results; ? = inconclusive; [ ] = another dose, or the depositor's remark. On the % scale 0 is the no-effect control and ±100 the full control effect; potency means the concentration at half of the fitted maximal effect. An excerpt; rates above refer to the full screens.

entry	VDR inhibitor	structure
1	-6%	COC(=O)CSc1nc(N2CCOCC2)c2c(c1C#N)CC(C)(C)OC2
2	-1%	COc1ccc(S(=O)(=O)Nc2cc3c(cc2C(C)=O)OCO3)cc1
3	-13%	Cn1c(=O)c2c(ncn2CC(=O)N2CCN(c3cccc(Cl)c3)CC2)n(C)c1=O
4	-21%	CN(C(=O)Nc1cccc([N+](=O)[O-])c1)c1ccccc1
5	2%	COc1ccc(-c2cc3ccccc3oc2=O)cc1NC(=O)c1ccc(Br)o1
6	-7%	CCOC(=O)c1cc(-c2cccc([N+](=O)[O-])c2)on1
7	5%	Cc1cccc(-c2c3c(=O)n(C)c(=O)n(C)c3cn2CCO)c1
8	-2%	COc1ccc(C(=O)NC(=S)N2CC(C)OC(C)C2)cc1OC (stereo not drawn)
9	4%	Cc1ccc(S(=O)(=O)Cn2nnnc2CN2CCN(C(=O)c3ccco3)CC2)cc1
10	16%	CCOc1ccc(CCNC(=O)C2CCC(=O)N2C2CCCCC2)cc1OCC (stereo not drawn)
11	6%	CCc1nn2c(-c3ccco3)ccnc2c1-c1ccc(F)cc1
12	7%	COc1ccccc1CNc1nc2ccc(Cl)cc2n2cnnc12
13	-4%	CCS(=O)(=O)Nc1ccc(C2=NN(C(=O)c3ccco3)C(c3cccc(F)c3)C2)cc1 (stereo not drawn)
14	-1%	CCOC(=O)/C(C#N)=C/c1ccc(OCC(=O)Nc2ccccc2)c(OC)c1
15	-1%	Cc1nn2c(N3CCCC3)c3c(nc2c1-c1ccccc1)CCC3
16	-8%	N#CCN1CCN(CC(=O)Nc2cccc3ccccc23)CC1
17	-10%	COC(=O)c1ccc2c(=O)n(CCCCCC(=O)NCc3ccccn3)c(=O)[nH]c2c1
18	12%	COc1ccc(-n2c(SCC(=O)N3CCCCC3)nnc2-c2cccnc2)cc1
19	-3%	O=C(CN1C(=O)NC2(CCCCC2)C1=O)Nc1ccc(N2CCCCC2)cc1
20	-7%	Cc1cccc(NC(=O)COc2ccc3oc4c(c3c2)CCCC4)c1
21	-27%	Cc1ccc(Nc2ncc3c(n2)CC(C)(C)CC3=O)cc1
22	11%	O=C(Nc1ccc(NC(=O)c2ccccc2Cl)nc1)c1ccco1
23	-20%	CCc1ccc(NS(=O)(=O)c2ccc(C)c(C(=O)N3CCOCC3)c2)cc1
24	6%	Cc1ccccc1Nc1nnc(-c2ccc(C(=O)NCCO)cc2)c2ccccc12
25	-4%	COc1ccc(N(C(=O)c2ccc(Cl)cc2)S(=O)(=O)c2ccc(C)cc2)cc1
26	-29%	Cc1ccc(S(=O)(=O)c2cn(CC(=O)Nc3ccccc3)c3ccc(F)cc3c2=O)cc1
27	-13%	Cc1ccc(Cn2c(SCC(=O)NCc3ccco3)nc3ccsc3c2=O)cc1
28	2%	CC(=O)c1c(C)oc2ccc(N(C(C)=O)S(=O)(=O)c3cccc4cccnc34)cc12
29	7%	Clc1ccccc1CSc1nnc([C@@H]2CCCN2)o1
30	-3%	NC(=O)c1c(NC(=O)c2ccccc2)sc2c1CCN(Cc1ccccc1)C2

Looked up above:
Entry of no. 27 under VDR inhibitor: -13%
Entry of no. 22 under VDR inhibitor: 11%
Entry of no. 30 under VDR inhibitor: -3%
Entry of no. 16 under VDR inhibitor: -8%

Next compounds follow.
entry	VDR inhibitor	structure
31	8%	COC(=O)CSc1nnc(CNC(=O)c2ccccc2OC)n1-c1ccc(OC)cc1
32	-6%	Cc1noc(C)c1S(=O)(=O)N1CCCN(C(=O)/C=C/c2ccccc2F)CC1
33	-5%	O=C(CCc1nnc(CCCCc2ccccc2)o1)NCCc1cccnc1
34	-8%	CCOC(=O)c1ccc(-n2c(CN3CCN(CCO)CC3)nc3ccc([N+](=O)[O-])cc3c2=O)cc1
35	-4%	CCCCCCC(c1c(C)n(C)n(-c2ccccc2)c1=O)c1c(C)n(C)n(-c2ccccc2)c1=O
36	18%	COc1cc2c(cc1OC)C(COc1ccc(C(C)C)cc1)NCC2 (stereo not drawn)
37	-7%	Cc1cc(C)c(Cn2c(=O)n(CCC(=O)NCc3ccc4c(c3)OCO4)c(=O)c3ccccc32)c(C)c1
38	-19%	Cc1cc(C=O)c(C)n1-c1cccc(C(=O)O)c1
39	-4%	O=S(=O)(/N=C(/Nc1ccccn1)c1ccccc1)c1ccc(Cl)cc1
40	20%	CCOC(=O)C1CCCN(C(=O)CC(c2ccccc2)c2ccccc2)C1 (stereo not drawn)
41	2%	Cc1ccc2[nH]c(=O)c(CN(CCCO)C(C)c3nnnn3Cc3ccco3)cc2c1 (stereo not drawn)
42	-2%	Cn1c(CC(=O)Nc2ccccc2)nnc1SCC(=O)NC1=NCCS1
43	-19%	CC(=O)NCCc1nc2cc(NS(=O)(=O)c3ccc(Cl)cc3)ccc2n1C
44	-8%	O=C(COC(=O)c1ccc(Br)cc1)NC1CCCC1
45	-20%	O=C(O)C1OC1(c1ccccc1Cl)c1ccccc1Cl (stereo not drawn)
46	0%	CCOC(=O)c1c(C)oc2ccc(OC(=O)COc3c(F)c(F)c(F)c(F)c3F)cc12
47	-6%	Oc1ccc2ccccc2c1C=Nc1ccc(Cl)cn1
48	?	O=C(CSc1c2c(nc3ccc(Cl)cc13)CCCC2)N1CCCCC1
49	12%	Cc1ccc(CNC(=O)c2ccc3c(c2)NC(=O)C(CS(=O)(=O)Cc2cccc(C)c2)N3)cc1 (stereo not drawn)
50	8%	CCOC(=O)Nc1ccc2c(c1)N(C(=O)N1CCN(C)CC1)c1ccccc1S2
51	11%	COc1cc(-c2nc3ccc4ccccc4c3c3c2CCC3)cc(OC)c1OC
52	8%	COc1ccc(NC(=O)c2cc3cc(C)ccc3n2C)cc1
53	-8%	CCN(CC)C(=O)[C@H]1C[C@H](CC(=O)NC(C)(C)C)C(=O)N2CCc3c([nH]c4cc(CCC(=O)N(C)C)ccc34)[C@]12C
54	-3%	C=CCOc1ccc(CN(C)C(=O)CNC(=O)c2ccc(-c3ccccc3)cc2)cc1
55	-7%	COc1cc(OC)cc(C(C(=O)NC2CCCCC2)N(C(=O)c2ccno2)c2ccccc2)c1 (stereo not drawn)
56	15%	Cc1cc(OC(C)C(=O)NCc2ccccn2)c2c(C)c(Cc3ccccc3)c(=O)oc2c1 (stereo not drawn)
57	1%	Cc1cc(-n2c(C)cc(C(=O)CSc3ncnc4ccccc34)c2C)no1
58	-4%	COc1ccc(C2=CC(=O)C[C@H](c3ccc(OC)c(OC)c3)C2)cn1
59	2%	COc1ccc(NC(=O)N2CCCc3ccccc32)c(OC)c1
60	-10%	C/C(=N\NC(=O)c1ccc(Cn2cc([N+](=O)[O-])cn2)o1)c1cccc(NC(=O)c2cccnc2)c1

The closing 7 compounds of the section above come first, to join the parts.
entry	VDR inhibitor	structure
54	-3%	C=CCOc1ccc(CN(C)C(=O)CNC(=O)c2ccc(-c3ccccc3)cc2)cc1
55	-7%	COc1cc(OC)cc(C(C(=O)NC2CCCCC2)N(C(=O)c2ccno2)c2ccccc2)c1 (stereo not drawn)
56	15%	Cc1cc(OC(C)C(=O)NCc2ccccn2)c2c(C)c(Cc3ccccc3)c(=O)oc2c1 (stereo not drawn)
57	1%	Cc1cc(-n2c(C)cc(C(=O)CSc3ncnc4ccccc34)c2C)no1
58	-4%	COc1ccc(C2=CC(=O)C[C@H](c3ccc(OC)c(OC)c3)C2)cn1
59	2%	COc1ccc(NC(=O)N2CCCc3ccccc32)c(OC)c1
60	-10%	C/C(=N\NC(=O)c1ccc(Cn2cc([N+](=O)[O-])cn2)o1)c1cccc(NC(=O)c2cccnc2)c1
61	11%	CCN1CCN(C(=O)/C(=C/c2cccs2)NC(=O)c2ccc(C)c(C)c2)CC1
62	-11%	COc1cccc(C2C(C(N)=O)=C(C)Nc3nc(-c4ccccc4Cl)nn32)c1 (stereo not drawn)
63	-21%	CC[C@H](C)C(C(=O)N1CCN(C(=O)OC(C)(C)C)CC1)n1cc(C(CC(C)C)NC(=O)OC(C)(C)C)nn1 (stereo partly drawn)
64	-11%	CC(CCc1ccccc1)NC(=O)CSc1nccc(=O)[nH]1 (stereo not drawn)
65	5%	COc1ccc(-c2nc3cnc(OC)nc3n(Cc3ccc(F)cc3)c2=O)cc1
66	1%	CN(C)CCOC(=O)c1cccc(Br)c1
67	4%	Cc1ccc(S(=O)(=O)N2CCN(CC(=O)N/N=C\c3ccccn3)CC2)cc1
68	-1%	Cc1nc(-c2ccccc2)sc1C1(C)CC(c2ccc(C#N)cc2)=NO1 (stereo not drawn)
69	0%	CCOC(=O)c1sc(NC(C)=O)nc1-c1ccccc1
70	-3%	CCOc1ccccc1N(C(=O)Nc1cccc(Cl)c1)C1=NC(C)CS1 (stereo not drawn)
71	-6%	Cc1nn(-c2ccccc2)c2c1C(c1ccc([N+](=O)[O-])cc1)N1C(=N2)C(=O)Nc2ccccc21 (stereo not drawn)
72	-1%	Cc1ccc(CS(=O)(=O)CCC(=O)NCCN(C)Cc2ccccc2)cc1
73	5%	Cc1ccc(C)c(N2CCN(C(=O)C3CCC3)CC2)c1
74	31%[activator]	CCc1cccc(OCC(=O)Nc2cc(S(=O)(=O)N3CCOCC3)ccc2N2CCCC2)c1
75	15%	O=C(CN(C(=O)CNS(=O)(=O)c1ccc(F)cc1)C1CCCC1)NCc1ccco1
76	-20%	Nc1nonc1-n1nnc(C(=O)N/N=C/c2ccccc2F)c1CN1CCOCC1
77	15%	Cc1ccc(F)cc1NC(=O)CCOc1ccccc1
78	8%	COc1ccc(C(=O)COc2ccc(C(C)=O)cc2OC)cc1OC
79	-1%	COCCn1ccc2c(OCC(=O)NCc3ccc(F)cc3)cccc2c1=O
80	-7%	CS(=O)(=O)c1ccc(Cl)c(NC(=O)COC(=O)CNC(=O)c2ccc(Br)o2)c1
81	12%	CCOC(=O)C1=C(C)Nc2ncnn2C1c1ccccc1F (stereo not drawn)
82	-6%	CCn1nnnc1SCC(=O)Nc1cccc(NC(C)=O)c1
83	8%	Cc1ccc(OCc2nnc(SCC(=O)Nc3ccccc3C(C)C)o2)cc1
84	-1%	O=[N+]([O-])c1ccccc1Nc1cccc(F)c1
85	-3%	CC1=CCC2C(=O)N(c3cc(C)on3)C(=O)C2C1 (stereo not drawn)
86	5%	O=C(c1cc(Br)c[nH]1)N1CCSCC1
87	5%	Cc1ccc(C)c(NC(=O)c2ccc3c(c2)CCN3S(=O)(=O)c2ccccc2)c1
88	-7%	Cc1cnn(-c2ccc3nnc(-c4ccc(Br)cc4)n3n2)c1
89	-4%	O=C(CSc1ncn[nH]1)c1ccc(OC(F)F)cc1
90	-9%	Cc1ccc(CCNC(=O)C2CCN(S(=O)(=O)c3ccc4c(c3)NC(=O)C(C)S4)CC2)cc1 (stereo not drawn)
91	-21%	Cc1cc2oc(=O)c(CC(=O)O)c(C)c2c2occ(C(C)(C)C)c12
92	-12%	O=C(N/N=C/c1ccc(-c2ccc([N+](=O)[O-])cc2)o1)c1cccnc1
93	-12%	COc1ccc(NC(=O)C(CC(=O)O)Cc2ccccc2)cc1 (stereo not drawn)
94	-10%	COc1ccc(OC)c(C2C(C(C)=O)=C(O)C(=O)N2Cc2cccnc2)c1 (stereo not drawn)
95	-13%	COc1cccc(NC(=O)c2nn(C)cc2Br)c1
96	-5%	COc1ccc(S(=O)(=O)N2CCN(c3ccccc3OC)CC2)cc1OC
97	10%	Cc1ccc(CS(=O)(=O)CCC(=O)N2CCOCC2)cc1
98	-21%	CCCCCOc1ccc(NC(=O)c2cc(SC)ccc2Cl)cc1
99	-7%	NS(=O)(=O)c1cccc(NC(=O)CSc2nnc3n2CCCCC3)c1
100	-7%	C=CCc1c(C)nc2cc(-c3ccccc3)[nH]n2c1=O
101	4%	CCCC(=O)NCC(c1ccc2c(c1)OCO2)N1CCN(c2ccc(F)cc2)CC1 (stereo not drawn)
102	1%	Cc1ccc(CNC(=O)CN2N=C(c3ccccc3)CCC2=O)cc1
103	26%	CC(C)(C)Nc1nc(SCc2ccccc2)nc(N2CCOCC2)n1
104	3%	Nc1nnn(CC(=O)N/N=C/c2ccc(O)cc2)n1
105	-28%	Cc1ccc(NC(=O)NCc2cccn2C)cc1C
106	-8%	C[C@H](CO)N1C[C@H](C)[C@@H](CN(C)C)Oc2c(NC(=O)c3ccncc3)cccc2C1=O
107	-5%	O=C(COc1ccc2ccc(=O)oc2c1)Nc1ccc(N2CCCCC2)cc1
108	5%	CC(=O)N1c2ccc(S(=O)(=O)N(C)CC(=O)N3CCCC3)cc2CC1C (stereo not drawn)
109	19%	O=C(CNc1cccc2ccccc12)N/N=C/c1ccc[nH]1
110	0%	COC(=O)c1[nH]c2ccc(C)cc2c1NC(=O)CN1CCN(c2ccc(F)cc2)CC1
111	-8%	CCCOC(=O)c1ccc(OC(=O)c2ccco2)cc1
112	6%	CC(C)(O)C#Cc1ccc(C(=O)N2CCCC(CCC(=O)NCc3ccccc3F)C2)cc1 (stereo not drawn)
113	-14%	O=C(c1ccco1)N1CCN(c2ccc(N3CCCCC3)nn2)CC1
114	-18%	C/C=C(/C)C(=O)Nc1cccc(C2=NOC3(C2)C[C@H](C(N)=O)N(C(=O)c2ccc(Cl)cc2)C3)c1 (stereo partly drawn)
115	-5%	CCCCn1nc(C(=O)Nc2cc(C(F)(F)F)ccc2N2CCOCC2)ccc1=O
116	-9%	COc1cccc(-c2c(C(=O)N/N=C/c3ccncc3)nnn2-c2nonc2N)c1
117	1%	S=c1[nH]nc(COc2cccc(Cl)c2)n1Cc1ccccc1
118	0%	COc1cc(SC)ccc1C(=O)N1CCN(Cc2ccccc2)CC1
119	-1%	CCCN(C(=O)/C=C/c1nc2ccccc2s1)C1CCS(=O)(=O)C1 (stereo not drawn)
120	16%	COc1ccc2c(c1OC)C(=O)OC2CC(=O)O (stereo not drawn)
121	-18%	O=C(COC(=O)c1ccc[nH]c1=O)Nc1ccc(N2CCCCC2)cc1

Grouped by structure, the entries above with a thiophene ring, fused or not (three)
entry	VDR inhibitor	structure
27	-13%	Cc1ccc(Cn2c(SCC(=O)NCc3ccco3)nc3ccsc3c2=O)cc1
30	-3%	NC(=O)c1c(NC(=O)c2ccccc2)sc2c1CCN(Cc1ccccc1)C2
61	11%	CCN1CCN(C(=O)/C(=C/c2cccs2)NC(=O)c2ccc(C)c(C)c2)CC1

Bioassay records from PubChem.
